Screens: PubChem BioAssay, several laboratories
eIF4H inh: inhibitors of RNA binding by human eIF4H | Q15056 | eIF4H fluorescence polarization binding assay | inhibition, % at 35 µM | 290,000 tested, 0.94% active | AID 2012;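 active means 50% or more with normal probe brightness, or confirmed in later tests; about a fifth of its hits are not listed in these tables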;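 further: calls also rest on retests at 20 µM and on dose response follow-up; 0% = protein and probe with vehicle and 100% = probe without protein; strong numbers were not always called active; many hits fall short of the cut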
PABP FP inh: PABP-poly(A) binding inhibition. PABP-poly(A) RNA binding, fluorescence polarization. 290,000 tested, 1% active. inhibition, % at 35 µM;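 active means 50% or more with normal probe brightness, or confirmed in later tests; about a fifth of its hits are not listed in these tables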;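 further: calls also rest on retests at 20 µM and on dose response follow-up; controls were probe without protein and protein plus probe with vehicle; some compounds called inactive have numbers as strong as hits; many hits fall short of the cut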
MT1-MMP act inh: MT1-MMP (human) activation inhibition. GFP/RFP ratio change, % at 20 µM. P50281. 360,000 tested, 0.061% active. HT1080 RFP-PRO-GFP cells, GFP/RFP ratio fluorescence, overnight; percent of plate control window, DMSO zero;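 active means GFP/RFP ratio change of at least 30% with cell ATP level not reduced by more than half and red fluorescence within 50% of control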; further: strong numbers were not always called active
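system = RFP-PRO-GFP reporter HT1080 cells | dosing = 20 µM single dose, 1% DMSO | timing = overnight cell settling, then overnight compound exposure, 37 °C, 5% CO2 | read-out basis = GFP/RFP fluorescence ratio | controls = DMSO and RFP-L50D-GFP cell wells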
Env fusion inh: blocks HIV Env-driven cell-cell fusion. HeLa-JRFL Env/CEM21 cell fusion, luciferase. inhibition, % at 12.3 µM. 360,000 tested, 1.1% active. AID 651610;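 active means mean replicate inhibition score of at least 50 and every replicate individually at or above 50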;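 further: 0% = plate neutral controls and 100% = maraviroc near 300 nM; one replicate is shown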
Rce1 inh: inhibitors of yeast Ras-converting enzyme; Q03530; yeast membranes, quenched prenylated peptide cleavage fluorescence; calls only; 290,000 tested, 0.27% active; AID 2563;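 active means fall in fluorescence gain of 50% or more versus controls, with final raw signal at or below 3038400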;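 further: plate controls were neutral control wells for no effect and wells lacking membranes for full effect; tested at 10 µM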
Target sequence (Q03530 whole entry, looked up): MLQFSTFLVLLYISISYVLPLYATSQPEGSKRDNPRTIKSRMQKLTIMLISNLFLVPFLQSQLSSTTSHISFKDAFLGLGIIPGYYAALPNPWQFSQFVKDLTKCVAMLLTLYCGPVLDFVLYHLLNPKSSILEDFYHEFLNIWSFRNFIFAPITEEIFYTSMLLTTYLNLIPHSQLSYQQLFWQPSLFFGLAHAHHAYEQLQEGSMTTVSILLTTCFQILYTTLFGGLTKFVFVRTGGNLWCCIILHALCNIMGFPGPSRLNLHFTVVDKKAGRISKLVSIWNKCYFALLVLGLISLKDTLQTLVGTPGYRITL
CSC inhib: cancer stem cell inhibition | cancer stem cell-like cells viability, luminescence | inhibition, % at 7.5 µM | 300,000 tested, 1.1% active;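 active means mean at 75% or more and at least half the replicates too; tested in HMLE shEcad cells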;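 further: 0% = median of negative and 100% = median of positive control wells; the first replicate is given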
UUG fidelity: yeast start codon fidelity modulation. 350,000 tested, 0.13% active. S. cerevisiae UUG-firefly luciferase reporter, luminescence/redox ratio. activity score, % at 18.7 µM. AID 602363;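 active means replicate mean at a twofold rise or more, about +100% in these data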;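 further: firefly luciferase made from a UUG start codon reports start codon fidelity; reporter light over untreated wells divided by growth signal over untreated wells; some hits fall short of that in this replicate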
eIF4H inh retest: recorded beside eIF4H inh, whose call it bears; inhibition, %; compound at 20 µM; confirmation average;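 mean of two retest wells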
PABP FP inh retest: recorded beside PABP FP inh, whose call it bears; inhibition, %; compound at 20 µM; confirmation repeats;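 mean of two retest wells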
MT1-MMP act inh RFP: recorded beside MT1-MMP act inh, whose call it bears; RFP signal change, %; measured here: RFP expression control read;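 0 = vehicle wells; hits needed this value within 50% of zero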
* marks the source's active call; other numbers are inactive results; i = inactive; nt = not tested or not shown.

SMILES | eIF4H inh | PABP FP inh | MT1-MMP act inh | MT1-MMP act inh RFP | Env fusion inh | Rce1 inh | CSC inhib | UUG fidelity | others
O=C1CC(c2ccco2)CC(O)=C1C=NCCN1CCN(C(=S)Nc2ccccc2)CC1 (stereo unspecified) | -11 | 1 | 0 | 3 | 4 | i | -12 | nt
CCC(Cc1ccccc1)NS(=O)(=O)c1c(C)nc2sccn2c1=O (stereo unspecified) | 2 | -3 | 4 | -1 | -6 | i | nt | 0
Cc1ccc(NC(=O)Cn2nc(C)c(S(=O)(=O)N(C)C)c2C)cc1 | -4 | 18 | -2 | -1 | -9 | i | nt | nt
O=C(CC1Sc2ccccc2NC1=O)Nc1cccc(C(=O)O)c1 (stereo unspecified) | 92 | 2 | 0 | 1 | 13 | i | -10 | -6 | eIF4H inh retest=-6;PABP FP inh retest=6
COc1cccc(-c2onc3ccc(C4(C)OCCO4)cc23)c1 | 7 | 2 | 2 | -7 | 7 | i | 11 | -4
N/C(=N\c1nc2c(c(=O)[nH]1)CCCC2)Nc1ccccc1 | 1 | 2 | 5 | 1 | -5 | i | nt | -11
Cc1[nH]c2ccccc2c1C(=O)/C=C/c1ccccc1Cl | 0 | 13 | -7 | -9 | -99 | i | 48 | -14
CC(C#N)(NC(=O)COC(=O)c1ccccc1NCCO)C1CC1 (stereo unspecified) | nt | nt | 4 | 3 | -14 | i | 15 | nt
CCOC(=O)c1ccc(NC(=O)CN(Cc2ccc(Cl)cc2)S(C)(=O)=O)cc1 | -5 | 6 | -1 | -4 | -31 | i | -3 | nt
CCC(=O)c1ccc(OCC(=O)N2CCN(c3ncccn3)CC2)cc1 | nt | nt | 10 | 0 | -25 | i | nt | -1
COc1ccc(S(=O)(=O)NC(C)C(=O)Nc2cccc([N+](=O)[O-])c2)cc1 (stereo unspecified) | 17 | 4 | -1 | -2 | -11 | i | -3 | nt
COc1ccc(-c2nc(-c3ccccc3)[nH]c(=O)c2C#N)cc1 | -1 | 1 | 0 | 3 | 18 | i | 7 | nt

The last three records of the section above open the next one:
SMILES | eIF4H inh | PABP FP inh | MT1-MMP act inh | MT1-MMP act inh RFP | Env fusion inh | Rce1 inh | CSC inhib | UUG fidelity | others
CCC(=O)c1ccc(OCC(=O)N2CCN(c3ncccn3)CC2)cc1 | nt | nt | 10 | 0 | -25 | i | nt | -1
COc1ccc(S(=O)(=O)NC(C)C(=O)Nc2cccc([N+](=O)[O-])c2)cc1 (stereo unspecified) | 17 | 4 | -1 | -2 | -11 | i | -3 | nt
COc1ccc(-c2nc(-c3ccccc3)[nH]c(=O)c2C#N)cc1 | -1 | 1 | 0 | 3 | 18 | i | 7 | nt
COc1cc2c(cc1OC)C(c1cccs1)NCC2 (stereo unspecified) | 2 | 4 | -5 | -3 | nt | i | -5 | -1
CCc1ccc(OCC(=O)N2CCN(c3ccccn3)CC2)c(Br)c1 | 2 | 6 | -1 | 1 | 10 | i | -3 | -4
Cc1cc(C)n(C(=O)c2ccc(S(=O)(=O)N3CCOCC3)cc2)n1 | -5 | 1 | 0 | 4 | nt | i | -1 | nt
O=C(NNC(=O)c1ccccc1-n1cccc1)c1cccc(Cl)c1 | -10 | -7 | -4 | 1 | nt | i | -3 | 2
CC(C)(C)c1csc(NNC(=O)c2ccc(Br)cc2)n1 | -7 | -14 | 4 | 0 | -13 | i | 61 | nt
CC(C)COc1nc2ccccc2nc1C(C#N)C(=O)NC1CCCCC1 (stereo unspecified) | -4 | -6 | -1 | -6 | nt | i | 23 | -19
Cc1onc(-c2ccccc2)c1C(=O)N/N=C/c1cc(Br)c(Br)o1 | 1 | 23 | -4 | -19 | -11 | i | 13 | nt
Cc1cc(C)nc(NS(=O)(=O)c2ccc(N3C(=O)C4C5C=CC(C5)C4C3=O)cc2)n1 (stereo unspecified) | 6 | 0 | 3 | 2 | -22 | i | -9 | -10
CCCCC(=O)Nc1cccc(-c2nn3c(C)nnc3s2)c1 | -13 | 5 | -2 | 4 | -3 | i | -6 | -18
COc1ccccc1CC(=O)NN1C(=O)c2ccccc2C1=O | -2 | 1 | -1 | 4 | 6 | i | -5 | nt
COc1ccc(Cl)cc1NC(=O)C/C(C)=N/NC(=O)Cc1ccccc1 | 7 | 8 | -3 | 1 | 10 | i | -1 | nt
C=CCn1c(SCCOc2ccc(OC)cc2)nnc1C(NC(=O)c1ccc(OC)cc1)C(C)C (stereo unspecified) | -9 | 7 | 1 | -15 | 36 | i | 4 | 2
CC1CCCCC1NC(=O)CCS(=O)(=O)c1ccc2c(c1)NC(=O)CO2 (stereo unspecified) | -12 | 4 | 4 | 3 | 1 | i | -10 | -22
O=C(CN(C(=O)c1ccc(Cl)cc1)C1CCCCC1)Nc1ccc(Cl)c([N+](=O)[O-])c1 | 5 | 3 | -2 | -16 | nt | i | 31 | nt
Cc1cccc(OCCSc2nc3ccccc3n2CCC(=O)O)c1 | -2 | 3 | -1 | -2 | -1 | i | -3 | 6
CCN(Cc1ccccc1)C(=O)COC(=O)CNS(=O)(=O)c1ccc(C)cc1 | 4 | 3 | -1 | 1 | nt | i | -3 | nt
Cc1cc(C)cc(C(=O)N(CCc2ccccc2)C2CC3CCC(C2)N3C)c1 (stereo unspecified) | 0 | 6 | -3 | 2 | 6 | i | -3 | 3
COc1cc(C(=O)N(Cc2cc3ccccc3[nH]c2=O)CC2CCCO2)cc(OC)c1OC (stereo unspecified) | -6 | -7 | 3 | 9 | -11 | i | -10 | 5
O=c1cc[nH]c2cc(Cl)ccc12 | 4 | 2 | -2 | 1 | -7 | i | -6 | -9
CCOC(=O)COc1cccc(C2NC(=O)c3ccccc3O2)c1 (stereo unspecified) | 3 | 9 | -2 | 3 | -5 | i | -3 | -14
COc1ccc(C2/C(=C(/O)c3ccccc3)C(=O)C(=O)N2c2ncccn2)cc1OC (stereo unspecified) | -4 | -9 | -3 | -1 | -2 | i | -10 | -17
CCOC(=O)C1=C(c2ccccc2)NC(SCC(=O)NC2CCCCC2)=C(C#N)C1c1ccco1 (stereo unspecified) | -8 | -1 | 15 | -9 | nt | i | 12 | 13
COc1ccc(CNC(=O)CN(C)S(=O)(=O)c2ccccc2)cc1 | -4 | 1 | 2 | 6 | 11 | i | -6 | nt
Cc1ccc(S(=O)(=O)N2C[C@H]3N(C(=O)OC(C)C)N(C(=O)OC(C)C)C[C@H](OC(=O)NCc4ccco4)[C@@]3(O)C2)cc1 | nt | nt | 1 | 0 | -130 | nt | nt | 14
CNC(=S)Nc1ccc([N+](=O)[O-])cc1C | -3 | 13 | 4 | 0 | -7 | i | nt | -13
COc1cccc(NC(=O)[C@@H]2CCC(=O)N2C2OC(=O)c3ccccc32)c1 (stereo partly specified) | -6 | -2 | 0 | 0 | nt | nt | -6 | -10
CNC(=O)c1c(C)[nH]c(=S)c(C#N)c1-c1ccco1 | 30 | 43 | -1 | 5 | -20 | i | -7 | -17
Cc1ccccc1C(=O)N1CCC(C(=O)NC2CCCC2)CC1 | 1 | 30 | 0 | 2 | 1 | i | -11 | -10
O=C(O)COc1cccc(NC(=O)C2CCCO2)c1 (stereo unspecified) | -10 | 4 | -1 | 5 | nt | i | 4 | -12
CN1CCN(NC(=O)COc2cccc(C(F)(F)F)c2)CC1 | 6 | -6 | 3 | 8 | nt | i | -22 | -10
COc1ccc(C)cc1S(=O)(=O)N1CCN(c2cccc(C(F)(F)F)c2)CC1 | -6 | 2 | -5 | -5 | nt | nt | -13 | -23
O=C(c1ccccc1)c1c[nH]c(C(=O)NCc2cccnc2)c1 | 2 | -5 | -1 | 0 | nt | i | -2 | -11
CC(C)CCn1c(N)c(S(=O)(=O)c2cccs2)c2nc3ccccc3nc21 | 5 | 0 | -20 | -10 | nt | i | nt | 4
CCCN(CC(=O)Nc1ccccc1C)C(=O)c1ccc(N2CCCCC2)c([N+](=O)[O-])c1 | nt | nt | 4 | -3 | -3 | i | -10 | 18
S=C1NCN(Cc2cccnc2)CN1 | 3 | 13 | 3 | 4 | -1 | i | -4 | -18
COc1ccc(CNC(=O)Nc2nnc([C@@H]3C[C@H](O)[C@@H](CO)O3)s2)cc1 | nt | nt | 2 | 2 | -4 | nt | nt | -17

Three entries already listed, arranged by molecular weight, low to high:
SMILES | eIF4H inh | PABP FP inh | MT1-MMP act inh | MT1-MMP act inh RFP | Env fusion inh | Rce1 inh | CSC inhib | UUG fidelity | others
CNC(=S)Nc1ccc([N+](=O)[O-])cc1C | -3 | 13 | 4 | 0 | -7 | i | nt | -13
Cc1ccccc1C(=O)N1CCC(C(=O)NC2CCCC2)CC1 | 1 | 30 | 0 | 2 | 1 | i | -11 | -10
CN1CCN(NC(=O)COc2cccc(C(F)(F)F)c2)CC1 | 6 | -6 | 3 | 8 | nt | i | -22 | -10

Continued:
SMILES | eIF4H inh | PABP FP inh | MT1-MMP act inh | MT1-MMP act inh RFP | Env fusion inh | Rce1 inh | CSC inhib | UUG fidelity | others
CCCCN(Cc1ccccc1)C(=O)c1cnc2n(c1=O)CCS2 | 2 | -4 | 9 | -5 | nt | i | nt | -14
CCCCCC(=O)N1C[C@H](n2cc(-c3ccc(F)cc3)nn2)[C@@H](O)C[C@@H]1c1ccc(OC)cc1 | nt | nt | 1 | -2 | -28 | nt | nt | 2
O=C(O)c1coc2ccccc12 | -2 | 2 | nt | nt | nt | i | -12 | nt
O=C(CCCC(=O)N1CCc2ccccc21)N1CCc2ccccc21 | -5 | 8 | 1 | 0 | 10 | nt | nt | -33
CCOC(=O)c1cc(-c2ccc(C)cc2)n(CCC(=O)N2CCN(c3ccccn3)CC2)c1C | -1 | 8 | -6 | -20 | nt | i | 34 | nt
CCOC(=O)CNC(=O)c1c2c(nc3ccccc13)CCCC2 | -4 | -10 | 2 | -2 | nt | i | 4 | -13
O=C(c1cc(-c2ccncc2)nc2ccccc12)N1CCCC(C(F)(F)F)C1 (stereo unspecified) | nt | nt | -3 | 0 | 19 | nt | nt | -17
Cc1ccc(C(=O)Nc2ccc(C(=O)O)cc2)cc1S(=O)(=O)NCc1ccccc1 | -9 | -10 | -1 | 0 | 7 | i | -7 | nt
O=C(N/N=C/c1ccnc2ccccc12)c1ccccc1O | 2 | 5 | 5 | 2 | -29 | i | -2 | -9
C=C(C)C(=O)OCC(O)COc1ccc(C(C)(C)c2ccc(OCC(O)COC(=O)C(=C)C)cc2)cc1 (stereo unspecified) | nt | nt | 3 | -13 | 29 | i | 24 | -5
O=C1CC(N2CCCN(C3CC(=O)N(c4ccc(F)cc4)C3=O)CC2)C(=O)N1c1ccc(F)cc1 (stereo unspecified) | -6 | -8 | -2 | -1 | nt | i | -1 | -12
CC(C)C[C@H](NC(=O)c1nc[nH]c1C(=O)N1CCN(c2ccccc2)CC1)C(=O)OCc1ccccc1 | 7 | 0 | 2 | 3 | 12 | i | -12 | -14
O=C(CCC(=O)N1CCSc2ccccc21)NCCc1ccccc1 | -8 | -12 | 0 | -1 | -6 | i | -6 | -11
O=C(COC(=O)c1cccs1)c1ccc2c(c1)OCCO2 | -4 | -7 | 5 | 3 | nt | i | 6 | -89
CCNC(=O)C1CC(=O)N(CC)C(=Nc2cc(Cl)c(O)c(Cl)c2)S1 (stereo unspecified) | -9 | 3 | -1 | -1 | -37 | i | -11 | -17
CCN(CC(=O)Nc1ccc(S(=O)(=O)N2CCCC2)cc1)CC(=O)Nc1cccc(OC)c1 | 13 | -7 | -1 | 3 | -32 | i | -21 | nt
O=C(O)c1cc2c(N3CCC(Cc4ccccc4)CC3)ncnc2s1 | -2 | 2 | -3 | -3 | 5 | i | 2 | nt
Cc1ccc(S(=O)(=O)c2c(N)n(CC3CCOC3)c3nc4ccccc4nc23)cc1 (stereo unspecified) | -1 | 4 | -3 | -2 | nt | i | 3 | -6
COCC(=O)N1CCC(n2nnc3cc(C(F)(F)F)ccc32)CC1 | -3 | -1 | 0 | 2 | -3 | i | 11 | nt
